Assay outcomes deposited in PubChem by National Center for Advancing Translational Sciences (NCATS).
D2 potentiator – positive allosteric modulators of human D2 dopamine receptor; AID 624464; P14416; 0.23% of 360,000 active; potentiation, % (concentration not given with the values); DiscoveRx D2 beta-arrestin cells, luminescence, 90 min; 100% = 57 uM dopamine signal; active = potentiation of 50% or more; inconclusive = 30% to 50%; inactive = 30% or less;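 also: compound concentration not given in the record; tested on top of an EC20 dose of dopamine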
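D2 cells co-treated with compound plus 50 nM dopamine (EC20) for 90 min at 37 deg C to detect potentiation. Beta-arrestin recruitment was read as enzyme-fragment luminescence after 1 h at ambient temperature. Full response was set by 57 uM dopamine.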
D2 agonist – agonists of human D2 dopamine receptor (beta-arrestin); P14416; DiscoveRx PathHunter D2 beta-arrestin, luminescence, 90 min; 100% = 57 uM dopamine signal; activation, % (concentration not given with the values); 0.084% of 360,000 active; in the data active = activation above about 40%; inconclusive = about 15% to 40%; inactive = below about 15%; also: compound concentration not given in the record; the text of the record calls up to 30% inactive
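Agonist mode: compounds alone added to overnight-plated D2 PathHunter cells for 90 min at 37 C, with 57 uM final dopamine (EC100) defining full response. Beta-arrestin recruitment detected by chemiluminescent reagent, read after 1 h at ambient temperature.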
CtBP-E1A blk – CtBP/E1A binding inhibition; AlphaScreen GST-E1A/His-CtBP binding, 1536-well; hits give low values; control for the full effect not named in the record; activity change, % (no concentration beside the values); 0.49% of 340,000 active; AID 651724; in the data active means activity change below about -65%; inconclusive means about -30% to -65%; inactive means above about -30%; also: % is scaled to controls: 0 for no effect and ±100 for the full control effect; compound concentration not given in the record
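Homogeneous bead-based format: GST-tagged E1A captured on glutathione donor beads, His-tagged CtBP on nickel acceptor beads; compounds precede bead addition by 2 h at 37 °C.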
TRPV1 potentiator – potentiators of human vanilloid receptor 1 (TRPV1) | Q8NER1 | TRPV1-expressing cells, Fluo-8 calcium influx, capsaicin EC20 potentiation; host cell line not named in the record; control for the full effect not named in the record | potentiation, % at 8.33 µM | 0.02% of 320,000 active; active means potentiation above 80%; inconclusive means 30% to 80%; inactive means below 30%; also: 0% is about no effect
Target sequence (Q8NER1 whole entry, looked up): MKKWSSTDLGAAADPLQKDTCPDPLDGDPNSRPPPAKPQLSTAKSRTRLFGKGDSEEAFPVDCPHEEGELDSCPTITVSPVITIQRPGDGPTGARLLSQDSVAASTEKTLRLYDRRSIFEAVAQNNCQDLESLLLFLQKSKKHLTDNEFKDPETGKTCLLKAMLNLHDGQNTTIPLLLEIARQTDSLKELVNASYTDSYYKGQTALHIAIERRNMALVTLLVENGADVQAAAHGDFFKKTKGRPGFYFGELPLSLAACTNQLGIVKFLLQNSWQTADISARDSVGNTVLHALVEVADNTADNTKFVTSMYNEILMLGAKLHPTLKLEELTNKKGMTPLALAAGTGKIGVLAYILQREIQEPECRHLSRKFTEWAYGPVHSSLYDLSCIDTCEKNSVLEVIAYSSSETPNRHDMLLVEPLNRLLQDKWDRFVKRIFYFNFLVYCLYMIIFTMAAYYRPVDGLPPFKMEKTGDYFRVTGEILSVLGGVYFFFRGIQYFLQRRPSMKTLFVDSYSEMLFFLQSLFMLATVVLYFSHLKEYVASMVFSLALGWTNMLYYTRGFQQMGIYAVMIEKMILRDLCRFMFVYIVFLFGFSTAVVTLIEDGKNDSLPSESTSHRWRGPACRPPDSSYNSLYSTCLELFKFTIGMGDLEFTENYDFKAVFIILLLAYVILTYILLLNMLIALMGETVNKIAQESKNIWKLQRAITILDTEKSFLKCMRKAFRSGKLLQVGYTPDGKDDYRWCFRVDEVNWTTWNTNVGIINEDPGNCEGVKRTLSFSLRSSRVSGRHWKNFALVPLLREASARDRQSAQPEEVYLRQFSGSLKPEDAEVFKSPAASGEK
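Cells expressing TRPV1 were dye-loaded with Fluo-8 and read kinetically: 10 s baseline, 3 min after compound (agonist portion), then 2 min after EC20 capsaicin (allosteric enhancer portion). Calcium-bound dye fluorescence at 480/520 nm.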
Sfp PPTase inh – inhibitors of Bacillus subtilis Sfp phosphopantetheinyl transferase; 3.5% of 310,000 active; Potency, µM, for inactives: max response, negative = inhibition, most hits filed as inhibitors; Q9F4F7; AID 1490; Biochemical Sfp PPTase activity, qHTS; active = well fitted inhibition curve with a large enough effect; inconclusive = small, poorly fitted or top-dose-only effect, or another doubt; inactive = no such curve, though single readings can be large or run the other way;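 also: the enzyme is Sfp with the accession as filed and its product quenches rhodamine fluorescence; potency is read from the fitted curve at half-maximal effect; 0% = enzyme reaction without inhibitor and -100% = no enzyme wells; top concentration of the series not given in the record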
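Sfp 15 nM + cpd, 15 min RT; start w/ rhodamine-CoA 5 uM, BHQ-2-YbbR 12.5 uM (final); 50 mM Hepes pH 7.6, 10 mM MgCl2, 0.01% NP-40, 0.01% BSA; read 525/598 nm at 0 and 30 min.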
Six1-Eya2 blk – Six1/Eya2 interaction inhibition. Q15475+O00167. activity change, % (no concentration beside the values). AlphaScreen GST-Six1/His-Eya2 binding, biochemical; hits give low values; control for the full effect not named in the record. 0.56% of 360,000 active; in the data active = activity change below about -65%; inconclusive = about -30% to -65%; inactive = above about -30%; also: % is scaled to controls: 0 for no effect and ±100 for the full control effect; compound concentration not given in the record
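Compounds are tested against tagged Six1 and Eya2 proteins bridged by glutathione donor and nickel acceptor beads; after a one-hour incubation at 37 °C without light, AlphaScreen emission is recorded.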
PINK1 modulator – PINK1 expression modulation; PINK1 immunofluorescence, high-content cytometry, 24 h; Potency, µM (doses to about 76.6 µM), without a hit: at the top dose activation (PINK1 increase), hits mostly activators; 0.2% of 410,000 active; AID 624263; active = well fitted activation curve with a large enough effect; inconclusive = small, poorly fitted or top-dose-only effect; inactive = flat fitted curve, though single readings scatter; cell line not stated here;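 also: potency is read from the fitted curve at half-maximal effect; % of control where 0% means no effect; nearly all actives have a fitted effect of over 65% in size; a mitochondrial uncoupler was the plate control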
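Cells are seeded, rested 12 hours, then given compound at five concentrations or DMSO for 24 hours. After fixation, blocking and antibody staining, PINK1 amount and mitochondrial localization are scored; CCCP serves as control.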
Numbers without * were called inactive; ? = inconclusive; nt = no result given; & = joins results of further samples; [ ] = another dose, or the depositor's remark.

SMILES	D2 potentiator	D2 agonist	CtBP-E1A blk	TRPV1 potentiator	Sfp PPTase inh	Six1-Eya2 blk	PINK1 modulator
CCO[C@@H]1OC(C(=O)N2CCN(Cc3ccccc3)CC2)=C[C@H](c2cn(C(C)=O)c3ccccc23)[C@H]1CCCO	-8	1.5	-6	6	2%	2	1.0%
CCCCSc1nc(C)c(C(C)=O)cc1C#N	-4	0.4	19	-2	9%	40	-0.2%
COc1cccc(N2CCN(c3ccc(S(=O)(=O)N4CCN(C)CC4)cc3[N+](=O)[O-])CC2)c1	-36	-1.3	7	nt	nt	?	1.4%
CCOc1ccc(Cl)cc1-c1cc(C(=O)NCc2cc(C(F)(F)F)cc(C(F)(F)F)c2)[nH]n1	3	-3.9	-5	nt	nt	3	?
CC1=NN(c2nc(N)nc(/C(C#N)=C/c3ccc([N+](=O)[O-])o3)n2)C(C)(C)C1	-17	3.2	-14	nt	nt	0	?
Cc1onc(-c2c(F)cccc2Cl)c1C(=O)NCC1COc2ccccc2O1 (stereo not given)	-13	0.5	0	6	29%	2	0.1%
COc1ccc(O)c(C2(O)C(=O)c3ccccc3C2=O)c1	-7	-4.3	5	-12	13%	1	1.9%
CCC(=O)Nc1ccc(C(=O)CSc2nc3ccccc3cc2CC)cc1	4	1.2	10	15	2%	0	nt
O=C(c1cc2ccccc2oc1=O)N(Cc1ccc(F)cc1)C1CCS(=O)(=O)C1 (stereo not given)	-4	-0.3	-1	-5	3%	0	0.3%
CCOc1ccc(C2CC(=O)NC3=C2C(=O)CCC3)cc1 (stereo not given)	-6	-0.3	-2	1	5%	11	0.4%
CCn1cc(C(=O)O)c(=O)c2cc(F)c(N3CCN(C(=S)NC(=O)c4ccccc4F)CC3)cc21	-2	-0.5	7	24	-1%	5	-0.8%
O=C(COC(=O)/C=C/c1ccc(Cl)cc1)Nc1ccc2[nH]c(=O)[nH]c2c1	-22	4.8	-3	-3	nt	3	0.1%
Cc1ccc(-n2nnnc2CN2CCCCC2)cc1	-2	2.0	-1	3	16%	5	-0.6%
COc1ccc(-n2c(SCC(=O)Nc3nccs3)nc3sc4c(c3c2=O)CCN(C)C4)cc1	-29	-5.9	22	-5	-1%	5	-1.1%
CCc1c(C(=O)Nc2nnc(C3CC3)s2)csc1C	-4	0.0	-9	4	6%	3	2.1%[38.3 µM]
CCC1=C(C)CN(C(=O)NCCc2ccc(S(=O)(=O)NC(=O)NC3CCC(C)CC3)cc2)C1=O (stereo not given)	9	-1.8	-6	nt	12%&-9%&2%	-14	-0.5%
Cn1c(Cc2cccs2)nnc1SCC(=O)Nc1ccccc1F	-12	-3.2	0	19	nt	0	0.5%
COc1cc(C(=O)NCC2CCCN2S(=O)(=O)c2cccs2)cc(OC)c1OC (stereo not given)	-3	-0.3	-3	-9	nt	7	1.9%
COC(=O)C1=C(CS(=O)(=O)c2ccc(OC)c(OC)c2)NC(=O)NC1c1ccc(O)c(OC)c1 (stereo not given)	-1	-0.7	-1	1	23%	-2	-0.1%
COc1ccc(S(=O)(=O)N2CCCCC2)cc1NC(=O)Cc1cccs1	10	-1.1	-13	-33	nt	0	-0.8%
O=C1CCCC2=C1C(c1ccco1)Nc1ccc3ccccc3c12 (stereo not given)	9	2.8	0	4	45µM*	?	8.3%
CCN(CC)c1c([N+](=O)[O-])c(=O)sc2ccccc12	-8	-3.1	nt	13	3%	-1	0.9%
COc1cccc(-c2nc(CS(=O)(=O)CC(=O)NCc3ccccc3)c(C)o2)c1	-10	-2.8	1	-13	-18%	-1	-1.0%
Cc1ccsc1C1C(C(=O)O)c2ccccc2C(=O)N1C (stereo not given)	6	-4.4	7	11	2%	0	2.2%
CCOC(=O)N1CCN(C(=O)COC(=O)CSc2ccc([N+](=O)[O-])cc2)CC1	-23	-3.5	-3	8	nt	-5	0.7%
CN(C(=O)COC(=O)c1ccc(=O)n(Cc2ccccc2)n1)c1ccccc1	-7	1.5	nt	8	-3%	-1	-0.3%
C#CCSc1n[nH]c(-c2ccco2)n1	?	0.2	nt	-3	8%	0	-0.9%
COc1ccc(S(=O)(=O)Nc2ccc(-c3ccc(N4CCCC4)nn3)cc2)cc1C	-5	1.8	-3	-9	nt	-16	0.7%
COc1ccc(CCC(=O)N2CCN(S(=O)(=O)c3ccc4ccccc4c3)CC2)cc1	-9	-0.3	-1	-1	11%	15	1.8%
OC[C@H]1O[C@H](c2nc(-c3nc(-c4cccs4)no3)cs2)C[C@@H]1O	-14	-5.7	-3	nt	nt	2	0.2%
CCN(CC)S(=O)(=O)c1cccc(NC(=O)CCNC(=O)NC23CC4CC(CC(C4)C2)C3)c1	-34	-5.5	1	-8	nt	-7	?
Cc1ccc(CNC(=O)CCCC(=O)Nc2cc(C)on2)cc1	1	-3.7	-4	2	14%	6	-0.3%
Nc1c(Cl)cnc(C(Cl)(Cl)Cl)c1Cl	17	12	0	-4	22%	8	25%
CCCc1c(O)nc(SC2CC(=O)N(c3cc(OC)ccc3OC)C2=O)[nH]c1=O (stereo not given)	-15	-3.6	-6	8	-6%	-2	-0.7%
CCOC(=O)C1CCCN(CCC(=O)Nc2ccc(F)c(F)c2)C1 (stereo not given)	-21	-0.4	8	-9	3%	0	-3.1%[38.3 µM]
O=C1N/C(=C/c2ccc(N3CCOCC3)o2)C(=O)N1c1cccc(Cl)c1	-4	-3.5	-11	6	8.9µM*	-1	?
COc1ccc(NC(=O)COc2nc3ccccc3nc2N2CCOCC2)c(OC)c1	-4	-0.3	nt	-6	6%	-5	9.0%
CCOC(=O)Cn1c(=O)oc2cc(S(=O)(=O)N(C)c3cccc(C)c3)ccc21	1	-1.3	-4	-16	4%	0	2.4%
O=C(Cn1cc([N+](=O)[O-])cn1)NC1CCCCCC1	-8	-3.4	5	5	3%	-1	0.1%
Cc1ccc(NC(=O)C2CCN(c3ncnc4sc(C)c(C)c34)CC2)cc1S(=O)(=O)N(C)C	-7	-1.6	-15	6	nt	-20	3.2%
COc1ccc(CCNS(=O)(=O)c2cc3c4c(c2)CCN4C(=O)CC3)cc1	3	-4.6	0	2	nt	-11	-0.1%
Cc1ccc(CN(Cc2cccnc2)C(=O)CN2C(=O)COc3ccccc32)o1	-10	-1.2	-2	3	28µM*	3	3.0%[38.3 µM]
Cc1nn(-c2ccccc2)c(C)c1CN	-6	-2.2	1	-7	16%	2	1.7%
O=C(NC1Cc2ccccc2C1)c1cc(COc2ccc(F)cc2Cl)on1	-8	-4.4	nt	-2	7%	20	15%
O=C(NCc1ccc(F)cc1F)Nc1cnccc1C(F)(F)F	-5	-2.2	nt	1	6%	-7	2.6%
O=C(NCc1ccccc1)C1CNCC(C(=O)NCc2ccccc2)C1 (stereo not given)	-9	-4.6	2	nt	nt	-2	4.2%
CC(NC(=O)CC1SC(N)=NC1=O)c1ccccc1 (stereo not given)	-1	-1.1	10	3	24%	6	1.4%
CCOC(=O)c1cn(CC(=O)Nc2cccc(Cl)c2)nn1	-6	-3.7	-10	22	-2%	-2	-0.2%
CCN1C(=O)c2cccc3c(S(=O)(=O)NCc4ccccc4)ccc1c23	0	-2.5	-4	-6	nt	3	2.8%
c1ccc(-c2ccccc2OCCCCN2CCCCCC2)cc1	-8	0.4	nt	2	-7%	0	?
CCCn1nnc(NC(=O)c2ccc(Cl)cc2Cl)n1	-6	-2.2	-2	-16	3%	8	1.6%
O=C(CCc1ccc(S(=O)(=O)N2CCOCC2)cc1)OCc1nc2ccccc2s1	-8	-5.1&-4.5	8	?	1%	1	-0.1%
O=C(COC(=O)c1ccc(Cl)s1)c1cc2ccccc2o1	-25	-8.6	22	-8	-10%	14	-2.3%
COc1ccc(/C=C(\NC(=O)c2ccco2)C(=O)N2CCCCC2)cc1	-7	1.7	3	4	23%	0	1.6%
Cc1cc(=O)[nH]c2cc(Cl)ccc12	-8	0.7	7	-4	13%	3	-7.8%[38.3 µM]
CCOC(=O)N1CCN(CCC(=O)Nc2cc(C)ccc2OC)CC1	-8	1.3	6	6	3%	-7	0.4%
COc1cc(C2CC(c3c(C)cc(C)[nH]c3=O)=NN2c2ccccc2F)cc(OC)c1OC (stereo not given)	4	0.2	0	9	9%	19	3.5%
Cc1occc1C(=O)NCCCCc1ccccc1	-7	-1.5	-1	6	18µM*	-1	-2.9%
C/C(=N/NC(=O)CNC(=O)c1ccccc1)c1ccc(C)cc1	-18	0.4	9	-10	24%	11	-0.4%
CC(C)C[C@H]1COc2cc(N3CCN(Cc4ccccc4F)CC3)ccc2S(=O)(=O)N1	nt	nt	-21	nt	nt	8	3.9%

(continued)
SMILES	D2 potentiator	D2 agonist	CtBP-E1A blk	TRPV1 potentiator	Sfp PPTase inh	Six1-Eya2 blk	PINK1 modulator
COC(=O)C1C(=O)C=C(Nc2ccc(F)cc2)CC1c1ccc(OC)cc1 (stereo not given)	-5	-5.9	11	-1	-9%	8	-1.6%
COc1cc(OC)cc(C(=O)Nc2ccc3c(c2)OCCO3)c1	-13	-2.0	8	5	5%	20	0.0%&-1.5%
O=C1CSC(c2ccc(F)cc2)N1c1nc2ccccc2s1 (stereo not given)	-18	-4.6	11	-2	-2%	-4	11%
CCOc1ccc(C(=O)CCC(=O)NN2C(=O)NC3(CCCCC3)C2=O)cc1	-2	0.0	nt	-1	nt	0	-0.7%
CC(OC(=O)C12CCC(=O)N1c1ccccc1S2)C(=O)Nc1cccc(Cl)c1 (stereo not given)	0	4.7	3	2	nt	2	0.4%
CCCCNc1nc(=S)[nH]c2cc(OC)c(OC)cc12	-17	-2.2	-93*	4	?	-91*	2.7%
COc1ccc(NC(=O)c2ccc(CN3CCN(c4ccccc4)CC3)cc2)cc1	11	?	0	3	-5%	-1	3.9%
